Arbovirus anti: blocks arbovirus infection; inhibition, % at 10 µM; AID 1251; arbovirus infection cell-based antiviral screen; actives 0.37% (n = 200,000);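 active = inhibition from about 30%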;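 also: bluetongue infection of BSR cells; cell survival read as ATP light after 72 h; 0% = infected wells without compound and 100% = uninfected wells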
YopH PTP inh: YopH (Yersinia) phosphatase inhibition; inhibition, %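 (about 10 µM by stock and volumes)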; actives 0.16% (n = 140,000); fluorescence Ex485/Em525;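 active = inhibition of 50% or more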;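 also: controls were vehicle for no effect and minimum signal wells for full effect; inactives centre near -20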
Mtb betalactam: beta-lactam sensitization of Mtb H37Rv; M. tuberculosis H37Rv growth with meropenem, percent inhibition; hits of this screen are not shown here; inhibition, % at 25 µM; actives 0.27% (n = 330,000);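 active = about 74% or more and at least 40 points above the plate without the antibiotic, then above 30% in a dose series; inconclusive = first-round hits that could not be retested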;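 also: growth measured after seven days incubation then overnight dye step; 0% = bacteria only wells and 100% = bacteria with antibiotic; twin plates without the antibiotic show which effects depend on it; some results filed as inactive read as strong as hits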
Mtb growth: M. tuberculosis H37Rv growth inhibitors, H37Rv strain (AID 1626); actives 0.95% (n = 220,000); M. tuberculosis H37Rv growth inhibition; higher % means a stronger effect; inhibition, % at 10 µM; hits with a dose series show IC50 in µM;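 active = confirmed in a dose series; inconclusive = inhibition above 80% but not taken into the dose series; inactive = below 80% or under 30% at every dose of the series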;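 also: bacteria incubated seven days before Alamar blue readout; 0% = bacteria only wells and 100% = bacteria with antibiotic wells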
RecA intein inh: inhibitors of M. tuberculosis RecA intein splicing; inhibition, %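 (about 9 µM by stock and volumes)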; cell-free RecA intein splicing, fluorescence; actives 0.75% (n = 290,000); in the data active = inhibition above about 30%; inconclusive = no clear call, values can overlap the other calls;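 also: 0% = vehicle wells and 100% = reference inhibitor control wells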
Target sequence (P9WHJ3 whole entry, looked up): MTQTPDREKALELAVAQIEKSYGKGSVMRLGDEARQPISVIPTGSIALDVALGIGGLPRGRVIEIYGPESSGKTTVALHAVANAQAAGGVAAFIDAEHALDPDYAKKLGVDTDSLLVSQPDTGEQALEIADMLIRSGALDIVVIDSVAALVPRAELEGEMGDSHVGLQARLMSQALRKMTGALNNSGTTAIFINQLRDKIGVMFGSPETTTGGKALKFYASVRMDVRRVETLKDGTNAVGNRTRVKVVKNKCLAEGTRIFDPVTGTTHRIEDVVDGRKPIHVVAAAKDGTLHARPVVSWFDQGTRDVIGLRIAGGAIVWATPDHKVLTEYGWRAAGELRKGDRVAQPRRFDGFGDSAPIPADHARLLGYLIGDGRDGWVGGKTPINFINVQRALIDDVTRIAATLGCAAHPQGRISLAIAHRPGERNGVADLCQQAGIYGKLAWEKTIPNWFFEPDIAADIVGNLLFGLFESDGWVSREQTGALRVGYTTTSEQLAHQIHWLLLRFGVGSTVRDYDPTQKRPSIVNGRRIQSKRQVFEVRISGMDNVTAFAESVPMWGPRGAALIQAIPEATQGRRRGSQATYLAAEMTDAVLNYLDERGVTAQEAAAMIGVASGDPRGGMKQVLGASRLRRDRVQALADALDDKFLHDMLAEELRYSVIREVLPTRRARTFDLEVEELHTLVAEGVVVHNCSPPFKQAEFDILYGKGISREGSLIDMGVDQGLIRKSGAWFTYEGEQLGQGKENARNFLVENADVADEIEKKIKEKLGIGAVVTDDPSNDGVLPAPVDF
Arbovirus anti repeat: recorded beside Arbovirus anti, whose call it bears; inhibition, %; measured here: 10K subset replicate screen; many hits read low in the repeat;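 first of two repeat runs on a subset; 0% = infected and 100% = uninfected wells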
* = called active by the depositor; ? = inconclusive; . = no result given.

SMILES	Arbovirus anti	YopH PTP inh	Mtb betalactam	Mtb growth	RecA intein inh	others
CCC1CCCCN1CCCNC(=O)c1ccc2c(c1)N(Cc1c(F)cccc1Cl)C(=O)CS2 (stereo not drawn)	.	.	2	.	3.1
Cc1cc(Cl)ccc1OC(C)C(=O)Nc1ccc([N+](=O)[O-])cn1 (stereo not drawn)	4	-19	23	5%	7.2
CN(NC(=O)NN)c1ncc(C(F)(F)F)cc1Cl	3	-16	-3	-2%	-0.6
COc1ccc(NC(=O)CCN2CCCCC2)cc1	3	-53	-4	-12%	-0.7
Cc1ccc(CNc2ncnc(N)c2[N+](=O)[O-])cc1	5	.	-3	3%	0.4
O=C(NCSc1ccnc(SCNC(=O)c2ccc(F)cc2)n1)c1ccc(F)cc1	6	-32	4	-12%	0.3
COc1ccccc1N1C(=O)S/C(=C\c2cc(C)n(C)c2C)C1=O	-9	.	3	2%	-7.3
Cc1cccnc1CCNC(=O)CC1C(=O)NCCN1CC1CCCCC1 (stereo not drawn)	-3	.	-2	4%	.
O=C(Nc1ccc2nc3ccccc3nc2c1)c1ccc(Br)cc1	-23	-8	2	4%	-11
O=C(O)c1ccc(S(=O)(=O)N(CCc2ccccc2)Cc2ccc(Cl)cc2)cc1	.	.	6	.	5.8
CC(=O)N1CCc2cc(S(=O)(=O)CCC(=O)Nc3ccccc3F)ccc21	.	.	1	.	0.1
O=C(NCc1ccccn1)C1CC(c2ccccc2Cl)=NO1 (stereo not drawn)	4	.	8	3%	.
COc1ccc(NC(=O)c2ccc3ccccc3c2OC)cc1	.	.	98	.	4.6
Cc1cccc(N2CCN(C(=O)NCc3ccc(F)cc3)CC2)c1C	.	.	8	.	1.3
NC(=O)c1ncn([C@@H]2O[C@H](CO)[C@@H](O)[C@H]2O)c1O	3	-16	4	0%	0.1
CCCCn1c(N)c(N(CC(C)C)C(=O)C2CCN(S(=O)(=O)c3ccc(C)cc3)CC2)c(=O)[nH]c1=O	.	.	1	.	-0.1
O=C(CCNC(=O)c1ccccc1Cl)NCc1cccnc1	.	.	2	.	-2.4
CCOC(=O)C(O)(c1ccc(N=Cc2ccccc2O)c(C)c1)C(F)(F)F (stereo not drawn)	-1	-21	2	1%	-0.9
O=C(O)CCCC(=O)Nc1ccc(Sc2ccc([N+](=O)[O-])cc2)cc1	10	-35	-6	-1%	-3.8
C=CCn1c(Cc2ccccc2)n[nH]c1=S	11	.	-7	0%	6.1
O=[N+]([O-])c1ccccc1OCCN1CCCC1	.	.	0	.	0.6
CCNC(=S)NCc1ccco1	10	-10	6	12%	-2.0
CCOC(=O)C1=C(CS(=O)(=O)c2ccccc2)NC(=O)NC1c1ccccc1OC (stereo not drawn)	.	.	-4	.	-1.6
CC(=O)N1CCN(C2c3cccc4cccc(c34)C2NS(=O)(=O)c2ccccc2)CC1 (stereo not drawn)	9	8	11	0%	-7.2
COc1ccc(C2N=C(N)N=C(N)N2c2ccc(C)cc2)cc1 (stereo not drawn)	8	-14	1	4%	-0.1
CCOC(=O)c1nn(-c2ccc(C)cc2)c(=O)c2c(N)scc12	-3	-8	-1	17%	35*
CCOC(=O)CCSCC(=O)Nc1cc(C)on1	4	-29	4	-1%	-2.1
O=C(CCc1[nH]c2ccccc2c1Sc1ccccc1)NCCO	0	-4	-1	-4%	0.6
O=c1c2ccccc2nc(SCc2ccccc2F)n1C1CCCC1	10	-26	0	2%	-0.7
Cc1c(CC(=O)O)c(=O)oc2c(C)c(OCc3ccccc3)ccc12	.	.	6	.	-1.2

Part of the list above in order of molecular weight, highest first.
SMILES	Arbovirus anti	YopH PTP inh	Mtb betalactam	Mtb growth	RecA intein inh	others
CC(=O)N1CCN(C2c3cccc4cccc(c34)C2NS(=O)(=O)c2ccccc2)CC1 (stereo not drawn)	9	8	11	0%	-7.2
CCOC(=O)C1=C(CS(=O)(=O)c2ccccc2)NC(=O)NC1c1ccccc1OC (stereo not drawn)	.	.	-4	.	-1.6
CCOC(=O)C(O)(c1ccc(N=Cc2ccccc2O)c(C)c1)C(F)(F)F (stereo not drawn)	-1	-21	2	1%	-0.9
O=C(O)CCCC(=O)Nc1ccc(Sc2ccc([N+](=O)[O-])cc2)cc1	10	-35	-6	-1%	-3.8
O=c1c2ccccc2nc(SCc2ccccc2F)n1C1CCCC1	10	-26	0	2%	-0.7
O=C(CCc1[nH]c2ccccc2c1Sc1ccccc1)NCCO	0	-4	-1	-4%	0.6
Cc1c(CC(=O)O)c(=O)oc2c(C)c(OCc3ccccc3)ccc12	.	.	6	.	-1.2
COc1ccc(C2N=C(N)N=C(N)N2c2ccc(C)cc2)cc1 (stereo not drawn)	8	-14	1	4%	-0.1
CCOC(=O)CCSCC(=O)Nc1cc(C)on1	4	-29	4	-1%	-2.1
O=[N+]([O-])c1ccccc1OCCN1CCCC1	.	.	0	.	0.6
C=CCn1c(Cc2ccccc2)n[nH]c1=S	11	.	-7	0%	6.1
CCNC(=S)NCc1ccco1	10	-10	6	12%	-2.0

Following part:
SMILES	Arbovirus anti	YopH PTP inh	Mtb betalactam	Mtb growth	RecA intein inh	others
CC(C)=NNC(=O)CN1C(=O)NC2NC(=O)NC21 (stereo not drawn)	-3	-26	-7	-3%	-0.1
Cc1ccc(C(=O)NC(=S)Nc2ccc(CN3CCCCC3)cc2)c(C)c1	-19	.	1	7%	1.3
Cc1cc(C(F)(F)F)n2nc(C)c(-c3ccc(Cl)cc3)c2n1	3	-28	-2	-3%	1.5
O=C(O)c1cccc(N/N=C/c2ccc(F)c(F)c2)c1	2	.	0	6%	-3.6
Cc1ccc(CN2CCC(N3CCC(C(=O)NCC4CCCO4)CC3)CC2)o1 (stereo not drawn)	3	.	-1	6%	-1.9
O=C(O)CC(NS(=O)(=O)c1ccc(Br)cc1)c1ccco1 (stereo not drawn)	-6	-51	-1	-7%	30
CCOc1ccccc1NC(=O)Cn1ncc2ccc([N+](=O)[O-])cc21	.	.	-5	.	0.3
CCn1cc(C(=O)NCC(OC)OC)c(=O)c2cc(S(=O)(=O)N3CCOCC3)ccc21	.	.	-1	.	2.2
COC(=O)c1c(S(=O)(=O)NCc2ccccc2)sc(C(=O)O)c1C	2	-40	-2	-6%	-0.6
Cc1ccc(C(C(=O)NCc2ccccc2)N(C(=O)c2ccccn2)c2ccccc2)o1 (stereo not drawn)	.	.	-2	.	7.4
CNC(=O)COC(=O)c1nc(-n2nc(C)cc2C)ccc1Cl	3	-42	11	-8%	-2.5
CC(=O)N1CC2(c3ccccc3)CN(C(C)=O)CC(c3ccccc3)(C1)C2=O	-1	.	-4	3%	62*
COc1ccc(OC)c(N(CC(=O)NCc2cccnc2)S(C)(=O)=O)c1	11	-23	-4	-3%	-1.5
COc1ccc(C(CNC(=O)c2sccc2C)N2CCOCC2)cc1 (stereo not drawn)	.	.	-10	.	-0.7
CCOC(=O)c1cc(-c2ccc(OC)cc2F)nc2c1c(C)nn2CCC#N	2	-30	-7	-2%	-1.7
O=C(CN(c1ccccn1)S(=O)(=O)c1ccc(F)cc1)Nc1ccccc1	9	.	-2	.	-1.2
Cc1ccc(C2C(C#N)=C(N)Oc3nc(-c4ccccc4)[nH]c32)o1 (stereo not drawn)	-1	-21	2	0%	89*
O=C(NCC1CCCO1)C(c1cccnc1)N(C(=O)Cc1cccs1)c1ccccc1 (stereo not drawn)	-5	-1	1	-10%	-0.2
O=C1Cc2ccccc2C(=O)N1CCc1ccccc1	-1	100*	-2	-1%	92*	Arbovirus anti repeat=4
Cc1cccc(C)c1NC(=O)COC(=O)c1ccc2[nH]c3c(c2c1)CCCC3	11	.	-14	14%	-1.9
CCOC(=O)CC(NC(=O)c1cc2ccccc2oc1=O)c1cccc([N+](=O)[O-])c1 (stereo not drawn)	-11	10	-5	8%	-2.3
O=C(O)CC(NNC(=O)c1ccccc1)C(=O)Nc1cccc([N+](=O)[O-])c1 (stereo not drawn)	.	.	-1	0%	.
CCOC(=O)N1CCN(C(=O)CS(=O)(=O)c2cn(Cc3ccccc3C)c3ccccc23)CC1	3	-21	1	-3%	1.0	Arbovirus anti repeat=-4
O=C(Oc1ccc(Br)cc1C(=S)N1CCCC1)c1ccccc1F	-2	-22	-1	1%	-0.8
CCc1cccc(NC(=O)CCCn2c(=O)[nH]c3ccsc3c2=O)c1	.	.	-2	.	1.2
COc1ccc(S(=O)(=O)/N=C2/NC(=O)/C(=C\c3cc(OC)c(OC)cc3[N+](=O)[O-])S2)cc1	2	-24	-11	-15%	-6.7
COC(=O)c1ccc(NC(=O)c2cccc(N3C(=O)C4C5C=CC(C6CC56)C4C3=O)c2)cc1 (stereo not drawn)	.	.	4	.	2.7
Cc1ccc(S(=O)(=O)c2c(C)nn(C(C)(C)C)c2OC(=O)C(C)(C)C)cc1	-1	-55	7	-3%	10
N#Cc1c(N2CCNCC2)nc(-c2ccco2)c2c1CCCC2	.	.	-9	3%	-7.9
Cc1cc(C)nc(N2CCC(C(=O)NC3CCCc4ccccc43)CC2)n1 (stereo not drawn)	-2	-17	-3	-2%	-3.1
CCOP(=O)(OCC)C(NC(=O)c1ccccc1)C(Cl)(Cl)Cl (stereo not drawn)	-4	-22	-6	-8%	-0.9
O=C(CNC(=O)Cc1ccccc1)NCC(=O)OCc1ccc(C(=O)c2ccccc2)cc1	6	-36	0	-6%	-0.6
O=C(O)c1ccccc1-c1nc2ccccc2n1-c1ccccc1	10	-29	0	-4%	0.8
COc1ccc(S(=O)(=O)N2CCCOC2CNC(=O)C(=O)NCCCN2CCOCC2)cc1 (stereo not drawn)	.	.	-10	.	1.5
Cn1c(=O)c2c(nc(Br)n2C/C=N/NC(N)=S)n(C)c1=O	.	.	-2	-9%	-1.4
CC12CC3CC(C)(C1)CC(C(=O)Nc1nncs1)(C3)C2	.	.	0	.	-0.9
COc1c(N2CCN(C(=S)Nc3ccc(F)cc3)C(C)C2)c(F)cc2c(=O)c(C(=O)O)cn(C3CC3)c12 (stereo not drawn)	-2	-41	100	?	-2.4
Cc1ccc(CNC(=O)c2ccc(N3CCc4ccccc43)c([N+](=O)[O-])c2)cc1	7	-6	7	9%	0.8
CC(/C=N/NC(=O)c1nnn(-c2nonc2N)c1CN(C)C)=C\c1ccco1	.	.	-2	0%	1.9
CC1(C)SC(=S)N(/N=C/c2ccccc2O)C1N(O)C(=O)Nc1ccccc1 (stereo not drawn)	.	.	-6	0%	-9.2
CCOC(=O)Cc1nnc(NC(=O)CC)s1	-6	-26	1	8%	2.6
Cc1ccc(NC(=O)C2CCC(CNc3c(N4CCC(C)CC4)c(=O)c3=O)CC2)cc1F (stereo not drawn)	.	.	-6	-5%	0.9
O=C1OCC=C1NNC(=O)c1cccnc1	-1	.	-2	-1%	.
CCc1nc(SCC(=O)c2ccccc2)c2c(=O)n(C)c(=O)n(C)c2n1	.	.	-3	-1%	-0.9
CCOC(=O)C(C)On1c(-c2ccc(Cl)cc2)nc2ccc([N+](=O)[O-])cc21 (stereo not drawn)	-24	-13	8	19%	5.8
COc1cccc(OC)c1-c1nn2c(-c3ccccc3Cl)nnc2s1	0	-29	3	2%	7.2
CN(CC(=O)NC(=O)NCc1ccccc1)Cc1ccc(Cl)c(Cl)c1	-10	-34	8	11%	8.3
C=CCNc1nc(-c2c(C)nc3sccn23)cs1	2	36	-12	-4%	-2.0
Cc1ccc(CNC(=O)c2oc3ccc(S(=O)(=O)N4CCOCC4)cc3c2C)cc1	-6	-2	-4	0%	0.9
C[C@@H]1CC=C[C@H]2[C@H]1C(=O)N(Cc1ccccc1)[C@H]2c1ccoc1	.	.	4	-2%	6.2

Carrying on.
SMILES	Arbovirus anti	YopH PTP inh	Mtb betalactam	Mtb growth	RecA intein inh	others
O=C(c1cccc2ccccc12)C1CCCN(C(=O)CCN2CCCO2)C1 (stereo not drawn)	8	.	-7	10%	0.8
CCCn1cc(SCC(=O)Nc2nnc(C)s2)c2ccccc21	-1	-33	2	-11%	-6.7	Arbovirus anti repeat=4
O=C(CSc1ccc(Cl)cc1)Nc1ccc(C2SCCS2)cc1	.	.	-1	-19%	-2.6
Cn1c(CO)cnc1S(=O)(=O)Cc1ccc(Cl)cc1	1	.	8	5%	-0.5
Cc1cccc(C)c1NC(=O)C1(NC(=O)C2CCCN2C(=O)OC(C)(C)C)CCCCC1 (stereo not drawn)	1	-50	0	-8%	3.7
O=C(c1cc2ccccc2oc1=O)N(Cc1ccco1)C1CCS(=O)(=O)C1 (stereo not drawn)	5	-31	-4	-4%	-2.9
Cc1cccc(NC(=O)C2C3C=CC(O3)C2C(=O)O)c1 (stereo not drawn)	.	.	0	.	2.2
Cc1cc(NC(=O)c2cnn3c(C(F)F)cc(-c4ccccc4)nc23)no1	-3	-22	-7	-2%	0.9

Screening data deposited in PubChem by several laboratories.

These rows are one share of the data (hit frequency here may not be typical).
